From PubChem
Beta apoptosis: inhibitors of cytokine-induced beta cell apoptosis, primary screen, luminescence; INS-1E cytokine-induced death, ATP luminescence, 48 h; percent of positive-control rescue, neutral wells zero; protection from apoptosis, % (test concentration not listed); hit rate 0.8% among 300,000; AID 435005, 2010;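 active means all replicates at 75% or more, or half of them and the mean; inconclusive means half reach 75% but not the mean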;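 further: 0% = cytokine-treated negative control wells and 100% = positive control rescue; higher means more ATP so stronger rescue from cytokine killing; wells of about 40 µL received 100 nL stock; the first replicate is given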
Ecoli rRNA inh: reduced GFP signal of wild-type E. coli, primary screen, bacterial rRNA inhibitor project, GFP/RFP fluorescence, OD600, single point; hit rate 1.6% among 350,000; E. coli WT GFP vs humanized-ribosome RFP mutants, 24 h; hits give low values; DMSO median 0, no signal -100; GFP signal change (wild-type ribosome), % (concentration not given with the values);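 active means significant combined selectivity score with lowered wild-type GFP, culture density cut under 30%, mutant RFP and density less affected; inactive means any of these conditions unmet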; further: one replicate is shown; some compounds called inactive have numbers as strong as hits
Calb FLC: C. albicans growth inhibition with fluconazole, primary screen, CaCi-2 strain, Alamar Blue fluorescence | C. albicans CaCi-2 (fluconazole-resistant clinical isolate) + fluconazole, 48 h | growth inhibition, % (concentration not given with the values) | hit rate 0.57% among 300,000 | AID 1979, 2009;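 active means most replicates above 75%; inconclusive means exactly half above 75%; inactive means most below 75%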;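 further: all wells also contain fluconazole at 8 µg/ml as a sub-toxic cotreatment; 0% = median of DMSO wells and 100% = median of geldanamycin control wells; wells of about 8 µL received 7.5 nL stock; the first replicate is given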
AF4-AF9 inh: inhibitors of AF4 peptide binding to AF9, primary screen, biochemical, AlphaScreen, biotin-AF4 peptide, FLAG-AF9, single point | Protein AF-9 (Homo sapiens), P42568 | inhibition, % at 10 µM | hit rate 0.47% among 350,000;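 active means every replicate reaching a set inhibition limit, whatever the replicate mean, cut at about 25% in these data; inconclusive means mean inhibition reaches that limit but some replicates miss it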;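 further: 0% = plate neutral control median and 100% = total signal loss; the record names both 10 and 1 µM as test concentration; the first replicate is given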
Target sequence (P42568 whole entry, looked up): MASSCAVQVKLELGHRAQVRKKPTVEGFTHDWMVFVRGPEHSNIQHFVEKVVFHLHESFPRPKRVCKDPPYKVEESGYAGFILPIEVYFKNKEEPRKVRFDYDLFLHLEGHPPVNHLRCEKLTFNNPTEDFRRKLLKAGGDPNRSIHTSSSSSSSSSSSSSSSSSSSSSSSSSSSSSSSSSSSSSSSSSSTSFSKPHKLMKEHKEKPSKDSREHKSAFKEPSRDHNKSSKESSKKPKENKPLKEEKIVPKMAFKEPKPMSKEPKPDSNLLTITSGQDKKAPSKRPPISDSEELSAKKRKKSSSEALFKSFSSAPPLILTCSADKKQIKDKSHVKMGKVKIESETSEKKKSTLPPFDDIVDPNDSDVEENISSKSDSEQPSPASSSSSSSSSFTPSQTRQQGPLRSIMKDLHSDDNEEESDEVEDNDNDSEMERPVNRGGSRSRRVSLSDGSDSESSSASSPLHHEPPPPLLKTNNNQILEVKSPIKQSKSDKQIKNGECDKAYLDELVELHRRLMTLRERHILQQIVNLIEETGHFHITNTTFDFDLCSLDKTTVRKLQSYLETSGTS
FGF22 binding: binders of human FGF22 protein, primary screen, FGF22 synaptogenesis inhibitor project, biophysical, thermal shift, single point | recombinant FGF22 thermal shift, SYPRO orange fluorescence; percent of sucrose octasulfate shift, DMSO zero | calls only at 9.99 µM | hit rate 1.5% among 340,000;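 active means melting point raised past a set limit in the mean and every replicate; inconclusive means no clear call; three in four hits are not shown here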
Target sequence (Q9HCT0 whole entry, looked up): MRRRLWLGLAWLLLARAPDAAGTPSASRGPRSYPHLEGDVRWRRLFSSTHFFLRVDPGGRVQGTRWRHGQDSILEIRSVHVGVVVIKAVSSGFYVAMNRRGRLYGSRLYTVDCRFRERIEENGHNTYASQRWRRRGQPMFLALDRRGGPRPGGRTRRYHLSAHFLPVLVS
T cruzi inh: inhibitors of intracellular T. cruzi growth, primary screen, luminescence, NIH3T3 host cells | T. cruzi beta-gal in NIH3T3, 90 h | inhibition, % (no concentration beside the values) | hit rate 1.4% among 300,000 | AID 1885, 2009;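 active means mean inhibition across valid replicates above about 55%, limit read from the data; inconclusive means mean below that limit but half or more replicates reach it; inactive means mean below it, under half of replicates reach it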;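 further: signal also drops with host cell toxicity which is not excluded here; 0% = plate median of DMSO wells and 100% = zero luminescence signal; higher percent means less beta-gal luminescence so fewer parasites; stock transfer was 50 nL into about 50 µL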
ALR inh: inhibitors of human ALR sulfhydryl oxidase, primary screen, biochemical, H2O2 detection, HRP-luminol luminescence, single point; FAD-linked sulfhydryl oxidase ALR (Homo sapiens), P55789; purified ALR, DTT oxidation; hit rate 3.8% among 290,000; inhibition, % (no concentration beside the values);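 active means mean and each replicate at 75% or more; inconclusive means only one of the two met; inactive means neither met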;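 further: stock transfer was 7.5 nL into about 7.5 µL; 0% = neutral wells and 100% = wells with inactivated enzyme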
Target sequence (P55789 whole entry, looked up): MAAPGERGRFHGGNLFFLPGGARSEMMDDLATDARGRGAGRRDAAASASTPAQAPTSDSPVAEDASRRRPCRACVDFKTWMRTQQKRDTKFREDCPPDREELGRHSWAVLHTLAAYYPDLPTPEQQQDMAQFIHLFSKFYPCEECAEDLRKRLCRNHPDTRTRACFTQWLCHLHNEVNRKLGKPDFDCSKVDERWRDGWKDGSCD
RanGTP-Impb inh: inhibitors of RanGTP-importin-beta interaction, primary screen, biochemical, FRET, CFP-Ran, YFP-importin-beta, homogeneous | cell-free CFP-Ran/YFP-importin-beta FRET ratio | inhibition, % (test concentration not listed) | hit rate 1.1% among 300,000;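 active means most replicates above 15%; inconclusive means exactly half above 15%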;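 further: 0% = DMSO wells and 100% = Ran loaded with GDP instead of GTP; wells of about 40 µL received 100 nL stock; the first replicate is given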
Ecoli rRNA inh OD600: also measured in Ecoli rRNA inh; calls as there; OD600 change, %; measured here: OD600 growth;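 optical density of the mix in the first replicate; 0 = DMSO median and -100 = no signal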
Ecoli rRNA inh RFP: recorded beside Ecoli rRNA inh, whose call it bears; RFP signal change, %; measured here: RFP humanized mutant strains;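 first replicate; 0 = DMSO median and -100 = no signal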
* = called active by the depositor; i = inactive; ? = inconclusive; / = not tested or not shown. Only part of the results is shown; the hit share may differ from the screen's.

mol	Beta apoptosis	Ecoli rRNA inh	Ecoli rRNA inh OD600	Ecoli rRNA inh RFP	Calb FLC	AF4-AF9 inh	FGF22 binding	T cruzi inh	ALR inh	RanGTP-Impb inh
CCCCc1nc2ccccc2c(NC(=O)CN2CCN(C)CC2)c1CCC	2	/	/	/	12	/	/	12	1	1.3
Cc1cc(C)cc(NC(=O)Nc2cc(S(=O)(=O)N(C)C)ccc2C)c1	2	-23*	-16*	-5.8*	4	0.9	i	12	-9	-0.5
O=C(NNC(=O)c1cccnc1)c1ccncc1	-2	3	18	5.2	-3	-2.1	i	-6	-3	-0.9
N#C[C@]1(S(=O)(=O)c2ccccc2)C[C@@H]2ON=C(c3cccc(Br)c3)[C@@H]2C1	52	-2	1	4.0	-24	0.2	i	-14	1	0.1
CC(C)(C)c1ccc(/C=C(\C#N)C(=O)NC2CC2)cc1	-11	-3	-2	-2.8	-24	-3.0	i	-13	-6	-0.3
COC(=O)/C(=C\Nc1ccccc1)NC(=O)c1ccc(Cl)cc1Cl	0	/	/	/	-2	/	/	-8	-13	-3.0
COc1ccc(OC)c(N/C(N)=N/c2nc(C)cc(C)n2)c1	8	9	4	0.7	-13	4.8	i	-5	-52	7.9
O=S(=O)(Nc1cc(F)ccc1F)c1cccc2nsnc12	-10	-1	-9	-4.0	25	-2.5	i	-6	2	4.7
Cc1ccccc1N1CN(Cc2ccco2)CNC1=S	0	3	7	5.4	7	-2.0	i	-12	0	0.0
O=C(Nc1ccc(F)cc1)NC1CCCCCCC1	0	-3	-1	0.9	-4	-0.8	i	-2	3	0.7
CC(C)(C)C(=O)Nc1nc2c(s1)COc1ccccc1-2	-2	4	-24	-4.5	14	8.2	i	-4	8	3.3
COc1ccc(N2CCN(C(=O)CCCSc3nc4ccccc4[nH]3)CC2)cc1	3	/	/	/	-3	/	/	-5	66	-2.6
COC(=O)C(C)Sc1nnc(Cc2cc(=O)[nH]c(=O)[nH]2)n1-c1cccc(OC)c1 (stereo not given)	/	2	3	1.1	1	-1.5	i	8	27	?
Cc1ccc(NC(=O)O/N=C/c2ccc(Br)cc2)cc1	-7	16	11	5.4	-11	0.9	i	11	-2	-4.0
CN(C)Cc1c(O)ccc2occ(C(=O)c3ccccc3)c12	1	/	/	/	6	/	/	8	-50	2.6
CCn1c(=O)c2c(nc3n2CCS3)n(C)c1=O	-2	/	/	/	-7	/	/	-12	0	-0.1
OCC[C@H]1C[C@@H](O)[C@H](O)[C@]2(Cc3ccccc3CCO2)O1	1	3	-4	6.7	/	1.5	i	/	/	/
CCCOc1ncnc2c1[nH]c1ccccc12	10	/	/	/	9	/	/	0	3	4.6
O=C1NC(c2ccccc2)=C(c2ccccc2)C1=O	-1	16	9	-0.1	/	4.6	i	/	/	/
COC(=O)[C@H](CC(C)C)NS(=O)(=O)c1ccccc1	/	3	2	3.9	-12	2.7	i	-12	-2	-2.7
COc1cc([C@H]2[C@@H]3CCCC[C@]3(O)CCN2Cc2ccccc2F)ccc1O	-2	/	/	/	1	/	/	2	/	0.6
CNc1ccc(/C=C(\C#N)C(=O)Nc2ccccn2)cc1[N+](=O)[O-]	5	2	7	1.2	8	-0.3	i	1	2	1.6
O=c1c2c(n3nnnc3n1Cc1ccccc1)-c1ccccc1CC21CCCC1	3	/	/	/	0	/	/	35	-2	4.9
CC(C)C[C@@H]1NC(=O)N(CCCn2ccnc2)C1=O	-10	12	14	0.3	0	-1.5	i	-8	-19	-1.9
O=C(NNc1ccc(Cl)cc1)c1sccc1Cl	7	/	/	/	105*	-0.3	i	29	/	5.6
COc1ccc(NC(=O)CN(C)C(=O)CN2C(=O)NC3(CCCC3)C2=O)cc1	3	3	13	-1.5	-13	-0.8	i	-3	-2	-1.4
CC(NC(=O)C1CCN(S(=O)(=O)c2cccs2)CC1)c1cccc(Cl)c1 (stereo not given)	1	/	/	/	/	0.7	i	/	-5	/
O=C(CCCCCN1C(=O)[C@@H]2Cc3ccccc3CN2C1=O)N[C@@H](Cc1ccc(O)cc1)C(=O)O	-5	8	-2	0.1	4	-2.8	i	-12	9	6.9
N/C(=N\OC(=O)CCc1ccccc1)c1cccc(Br)c1	5	/	/	/	-5	/	/	-22	-7	-3.7
CCOC(=O)C1CCN(C(=O)CCCn2c(=O)c3cccn3c3cccnc32)CC1	0	-20	-22	-8.9	21	1.5	i	3	6	7.1
COc1ccc(/C=C2\Oc3cc(OCC(N)=O)ccc3C2=O)cc1OC	-2	-29*	1.3*	1.7*	2	-0.3	i	-1	/	-43
Cc1ccc(S(=O)(=O)Oc2ccc(/C=N/NC(=O)c3c(Cl)cnn3C)cc2)cc1	-1	/	/	/	-2	/	/	-2	/	-2.9
CCCCN(CC)CCNC(=O)c1cc2c(=O)n(C)c3ccccc3c2s1	12	-6	-5	-1.4	13	-3.2	i	61*	-14	2.4
FC(F)(F)c1cc(CCN2CCNC[C@@H]2c2ccccc2)cc(C(F)(F)F)c1	7	-39	-42	-21	/	5.9	i	/	-9	/
Oc1ccccc1C=NCC(O)c1ccccc1 (stereo not given)	-11	1	11	-0.8	6	5.3	i	-13	-3	3.2
CCOc1ccc(C(=O)Nc2ccc(S(=O)(=O)N3CCOCC3)cc2)cc1OCC	3	/	/	/	-3	/	/	9	-14	-2.8
COc1cc(C(=O)Nc2sc(C)c(C)c2C(=O)O)cc(OC)c1OC	5	-17	-10	-9.5	-9	-2.2	i	-10	-9	-2.8
CN(C)/C=N/c1sc2c(c1C#N)CCC2	-6	-7	0	6.3	29	6.9	i	3	87*	12
CCOc1ccc(CCNC(=O)COC(=O)c2cccc(N(C)C)c2)cc1OCC	-1	0	2	0.0	6	0.8	i	0	-8	0.7
CCOC(=O)c1ccc(N2C(=O)C3C(C2=O)C(C(=O)c2ccc(Cl)cc2)N2CCCC32)cc1 (stereo not given)	-1	/	/	/	7	/	/	-4	3	-12
CCCCCC(O)(CCN1CCCCC1)c1ccc(OCC)cc1 (stereo not given)	4	4	-29	25	5	-0.8	i	-15	4	3.2
Cc1c(C(=O)NCCSCc2c(F)cccc2Cl)cnn1-c1ccc(Cl)cc1	-1	-23	-27	25	-2	-1.6	i	14	2	5.4
C[C@H]1CN(S(=O)(=O)c2ccc3c(c2)OCCO3)CCN1S(=O)(=O)c1c(F)cccc1F	5	-30	-24	-19	/	1.0	i	/	0	/
CCOc1ccc(Br)cc1S(=O)(=O)NC1CCCC1	-3	-7	-6	0.2	/	0.7	i	/	-5	/
CCN1C(=O)[C@H]2[C@@H](c3ccc(-c4ccc(C(C)=O)cc4)cc3)N3CCC[C@@]3(C(=O)OC)[C@H]2C1=O	-8	-3	-6	5.2	0	4.7	i	5	-18	-3.5
CC(C)OC(=O)NCCOC(=O)Nc1ccc(Cl)c(Cl)c1	26	/	/	/	48	/	/	-11	/	-2.7
Cc1ccc(NC(=O)CC2S/C(=N/N=C3\CCCc4ccccc43)NC2=O)cc1 (stereo not given)	4	-34	-19	34	60	-0.5	i	-13	-2	-31
Cc1ccc(N2CC(C(=O)NCCS(=O)(=O)N3CCN(c4ccccc4F)CC3)CC2=O)cc1 (stereo not given)	/	-9	6	-6.0	-4	2.8	i	-15	-12	7.0
Nc1nc(SCC(=O)Nc2cc(C(F)(F)F)ccc2N2CCOCC2)n[nH]1	-7	8	-10	0.3	-4	-2.1	i	-15	9	-2.7
CCN(CC)C(=O)C(C)OC(=O)COc1ccc(Cl)cc1C (stereo not given)	-1	/	/	/	-2	/	/	8	-14	-3.3
Cc1[nH]n(-c2ccccc2)c(=O)c1N=Nc1c(O)cc(S(=O)(=O)N(C)C)c2ccccc12	111*	9	13	14	-9	50*	i	46	-4	1.8
CCOC(=O)c1cc(C)n(Cc2ccc(OCC)c(OC)c2)c1C	4	/	/	/	-1	/	/	-24	-1	5.3
CC(=O)Oc1ccc(NC(=O)Cc2ccccc2)c(C(=O)O)c1	-5	10	13	0.2	-3	2.0	i	0	10	0.6
COc1cc(NC(=S)N2CCCC(CO)C2)cc(OC)c1 (stereo not given)	-10	3	3	-2.3	-6	-1.4	i	-9	1	3.4

Filtered by structure, the entries above containing a COOH group.
mol	Beta apoptosis	Ecoli rRNA inh	Ecoli rRNA inh OD600	Ecoli rRNA inh RFP	Calb FLC	AF4-AF9 inh	FGF22 binding	T cruzi inh	ALR inh	RanGTP-Impb inh
O=C(CCCCCN1C(=O)[C@@H]2Cc3ccccc3CN2C1=O)N[C@@H](Cc1ccc(O)cc1)C(=O)O	-5	8	-2	0.1	4	-2.8	i	-12	9	6.9
COc1cc(C(=O)Nc2sc(C)c(C)c2C(=O)O)cc(OC)c1OC	5	-17	-10	-9.5	-9	-2.2	i	-10	-9	-2.8
CC(=O)Oc1ccc(NC(=O)Cc2ccccc2)c(C(=O)O)c1	-5	10	13	0.2	-3	2.0	i	0	10	0.6

Limited to ALR inh and RanGTP-Impb inh, for 2 of the compounds above:
SMILES	ALR inh	RanGTP-Impb inh
CC(C)OC(=O)NCCOC(=O)Nc1ccc(Cl)c(Cl)c1	/	-2.7
Cc1ccc(NC(=O)CC2S/C(=N/N=C3\CCCc4ccccc43)NC2=O)cc1 (stereo not given)	-2	-31
